AmpC inh no det – blocks E. coli AmpC beta-lactamase in absence of detergent | 71,000 compounds, 1.8% hits | AmpC nitrocefin hydrolysis, absorbance 480 nm, no detergent; potencies from a single point are estimates | P00811 | Potency, µM (top dose mostly 28.7 µM), for the others: at the highest dose activity change, negative = inhibition; active = falling curve, for most hits resting on a single point; inconclusive = weak or doubtful change; inactive = flat or rising curve; further: % of control where 0% means no effect; about half of the hits show no inhibition at the top dose; a quarter of the inactives give rising signals
Target sequence (P00811 whole entry, looked up): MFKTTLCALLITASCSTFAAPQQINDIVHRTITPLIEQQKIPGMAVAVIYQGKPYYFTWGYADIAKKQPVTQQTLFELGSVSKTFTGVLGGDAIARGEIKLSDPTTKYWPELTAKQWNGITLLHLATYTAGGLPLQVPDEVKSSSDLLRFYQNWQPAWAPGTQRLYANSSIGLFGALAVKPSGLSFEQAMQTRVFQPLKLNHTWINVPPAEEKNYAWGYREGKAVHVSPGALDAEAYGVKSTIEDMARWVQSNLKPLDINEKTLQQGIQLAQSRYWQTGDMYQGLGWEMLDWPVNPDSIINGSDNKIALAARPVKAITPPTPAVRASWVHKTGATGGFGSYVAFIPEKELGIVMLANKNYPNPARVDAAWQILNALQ
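AmpC, 20 mM phosphate pH 7.0; 15 min cpd preinc, RT; start with nitrocefin (800 uM stock); A480 kinetic read, 20 s intervals, 4 min. No-enzyme wells = negative control.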
Active calls of the source: *; [ ] = another dose, or the depositor's remark. Potency means the concentration at half of the fitted maximal effect. The list is partial; rates above refer to the full screens.

smiles | AmpC inh no det
CC(C)CCn1nnnc1C(c1ccc(F)cc1)N1CCN(C(=O)c2ccco2)CC1 (centres undefined) | 114%
COc1ccc(NC(=O)c2oc3cc(C)c(C)cc3c2C)c(OC)c1 | 25%
O=C(O)C(F)(F)S(=O)(=O)O | -6%
Cc1noc(C)c1COC(=O)c1cccnc1SCC(=O)Nc1ccc2c(c1)OCO2 | 7%
COc1ccccc1-c1nnc(SCCN2CCOCC2)n1-c1ccc(C)cc1 | 99%
CN(C)C(=O)CSc1nnc(CCNC(=O)OC(C)(C)C)o1 | 0%
Cc1ccccc1NC(=O)c1c(F)c(F)c(F)c(F)c1F | -1%
O=C(CSc1nnc2scc(-c3ccccc3)n12)N1CCN(Cc2ccccc2)CC1 | 119%
COc1ccc(-n2c(=O)c3ccccc3n(CC(=O)NC3CCCC3)c2=O)cc1 | -13%
COc1cccc(-c2nc(N3CCNCC3)c3ccccc3n2)c1 | 40%
O=c1cc(Cn2ccnc2)c2cc3c(cc2o1)CCC3 | -8%
CCOC(=O)C1CCCN(C(=O)c2cc3c(=O)n4cccc(C)c4nc3n2C)C1 (centres undefined) | 61%
CC(=O)[C@@H]1[C@@H]2C(=O)N(c3ccc(F)c(Cl)c3)C(=O)[C@@H]2C2c3ccccc3C=CN21 (some centres undefined) | 11%
CCN(CC)CCOc1nc(C)nc2c1oc1ccccc12 | 10%
COc1cccc(-n2c(SC)nnc2-c2cnccn2)c1 | 15%
COCCCn1c(-c2ccc(OC)cc2)nc2nc3ccccc3nc21 | 8%
CCn1ncc(C(=O)Nc2ccc(S(=O)(=O)N3CCCC3)cc2)c1C | 10%
O=C(c1ccc2c(c1)OCO2)N1CCNc2ccccc2C1 | 11%
O=S(=O)(c1ccccc1)N1CCC2(CCCN(Cc3nccs3)C2)CC1 | 2%
COCCNc1ccnc(-c2ccccc2C)n1 | 9%

A section from further up:
smiles | AmpC inh no det
CCOC(=O)C1CCCN(C(=O)c2cc3c(=O)n4cccc(C)c4nc3n2C)C1 (centres undefined) | 61%
CC(=O)[C@@H]1[C@@H]2C(=O)N(c3ccc(F)c(Cl)c3)C(=O)[C@@H]2C2c3ccccc3C=CN21 (some centres undefined) | 11%
CCN(CC)CCOc1nc(C)nc2c1oc1ccccc12 | 10%
COc1cccc(-n2c(SC)nnc2-c2cnccn2)c1 | 15%
COCCCn1c(-c2ccc(OC)cc2)nc2nc3ccccc3nc21 | 8%

The main list resumes; the 6 compounds before the break are reprinted first.
smiles | AmpC inh no det
COc1cccc(-n2c(SC)nnc2-c2cnccn2)c1 | 15%
COCCCn1c(-c2ccc(OC)cc2)nc2nc3ccccc3nc21 | 8%
CCn1ncc(C(=O)Nc2ccc(S(=O)(=O)N3CCCC3)cc2)c1C | 10%
O=C(c1ccc2c(c1)OCO2)N1CCNc2ccccc2C1 | 11%
O=S(=O)(c1ccccc1)N1CCC2(CCCN(Cc3nccs3)C2)CC1 | 2%
COCCNc1ccnc(-c2ccccc2C)n1 | 9%
Cc1cc(C)nc(N(C#N)S(=O)(=O)c2ccccc2)n1 | -6%
COc1ccc(C2CC(C(F)(F)F)n3nc(C(=O)NCc4c(C)nn(C)c4C)c(Cl)c3N2)cc1 (centres undefined) | 118%
CCOCCn1c(CCCO)nc2ccccc21 | 9%
Cn1c(SCc2ccccc2Cl)nnc1-c1cnccn1 | 14%
CCOC(=O)c1c(NC(=O)c2nn(CC)cc2Br)c(C#N)nn1-c1ccccc1 | 15%
O=C(CCCNS(=O)(=O)c1cccc2nsnc12)NCc1ccccc1 | 10%
O=C(c1csnn1)N1CCC[C@@]2(CCN(c3ncccn3)C2)C1 | 5%
COc1cc(NC(=O)Cn2nnc(-c3ccccc3N)n2)cc(OC)c1 | -17%
COC(=O)c1ccc(NC(=O)C2CC(=O)N(c3cc(C)ccc3C)C2)cc1 (centres undefined) | 63%
COc1cc(N/C(=N/S(=O)(=O)c2ccccc2)c2ccccc2)ncn1 | 10%
Oc1ccccc1-c1nc(NCC2CCCO2)c2ccccc2n1 (centres undefined) | 33%
CC(=O)OCC(=O)[C@@]12OC(C)(C)O[C@@H]1C[C@H]1[C@H]3C[C@H](F)C4=CC(=O)C=C[C@@]4(C)[C@]3(F)[C@H](O)C[C@@]12C | 34%[12.8 µM]
COc1ccc(C2=CSC3=NCCN23)cc1F | 2%
COC(=O)c1ccc(N2C(=O)CC(N(C)Cc3ccccc3)C2=O)cc1 (centres undefined) | -7%
COc1ccc(C)cc1NC(=O)CN(c1ccccc1F)S(C)(=O)=O | 30%
COCCn1cnc2c1c(=O)n(CC(=O)c1ccc3c(c1)OCCO3)c(=O)n2Cc1ccccc1 | 109%
O=S(=O)(/N=C(/Nc1cc(N2CCOCC2)ncn1)c1ccc(F)cc1)c1ccccc1 | 11%
O=C(CC1SC(=Nc2ccccc2)N(CCCO)C1=O)Nc1ccc(Cl)cc1 (centres undefined) | 93%
COc1cc(C2C(C(=O)c3ccco3)=C(O)C(=O)N2c2cc(C)on2)cc(Br)c1O (centres undefined) | -17%
Cc1ccc(-c2nc(CSCC(=O)N3CCCC3)c(C)o2)cc1 | 67%
O=C(Cc1ccccc1)Nc1c(C(=O)N2CCOCC2)cnn1-c1ccccc1 | 13%
Cc1cc(C)c(S(=O)(=O)NCC2CCC(C(=O)NCCCN3CCOCC3)CC2)c(C)c1 (centres undefined) | 130%
Clc1ccc(-c2nnc(-c3ccc(Br)o3)o2)c(Cl)c1 | -2%
CNC(=O)CCn1nc(-c2ccc(Cl)cc2)c2ccccc2c1=O | 41%
CCCCn1c(CNC(C)=O)nc2ccccc21 | 16%
Cc1nc2cc(NC(=O)N3CC4(C)CC3CC(C)(C)C4)ccc2n1C (centres undefined) | 23%
Cc1cc(S(=O)(=O)N2CCCC2)c(C)s1 | 9%
Cc1sc(NC(=O)c2ccco2)c(CN2CCCCC2)c1C | 8%
O=C(NCc1ccccn1)C1CCCN(S(=O)(=O)c2ccc(Br)cc2)C1 (centres undefined) | 44%
Cc1ccc(N(CC(=O)NC2CCC(C)CC2)S(=O)(=O)c2cccnc2)cc1 (centres undefined) | 112%
O=C(O)CCC(=O)c1cccc2ccccc12 | 1%
CCOc1cc(NC(=O)c2ccco2)c(OCC)cc1NC(=O)COc1ccccc1 | 7%
Cc1ccc(S(=O)(=O)N2CCCC2C(=O)Oc2ccccc2)cc1 (centres undefined) | 34%
CCn1c(CNc2cccc(Cl)c2)nnc1SCc1ccccc1 | 24%
CN1CCN(c2ccc(NC(=O)c3ccccc3Br)cc2)CC1 | -4%
Cc1noc(C)c1COC(=O)CCc1nc2ccccc2s1 | 16%
COc1ccc(C(=O)Nc2c(N)nc(SCC(=O)N3CCCCCC3)[nH]c2=O)cc1OC | -6%
O=C(c1ccco1)N1CCN(Cc2ccc(Cl)cc2)CC1 | 33%
O=C(N1CCCCC1)N1CCN(C(=O)N(c2ccccc2)c2ccccc2)CC1 | 78%
Cc1n[nH]c(C)c1S(=O)(=O)N1CCCC(C(=O)NCC2COc3ccccc3O2)C1 (centres undefined) | 33%
O=C(COc1ccc(Br)cc1)OCc1nnc(-c2ccccc2)o1 | 12%
Cc1cc(NC(=O)CSc2nnc(COc3ccccc3)o2)no1 | -16%
CCC(=O)Nc1sc2c(c1C(N)=O)CCC2 | -7%
CCc1ccc(C2C(C(C)=O)=C(C(=O)OC)Nc3nnnn32)cc1 (centres undefined) | -13%
Cc1ccc(-c2nnc(N3CCN(c4ccccn4)CC3)c3ccccc23)cc1 | 3%
CCOc1ccc(-c2cc(C(=O)N3CCN(c4ccccn4)CC3)c3ccccc3n2)cc1 | 72%
CCOC(OCC)P(=O)(O)CCCN | 0%
CN(C)CP(=O)(O)CN(C)C=O | -9%
O=C(NC1CCCCC1)N1CCC(c2nc3ccc(Cl)cc3[nH]2)CC1 | -2%
C=CCn1c(=N)n(CC(=O)OCC)c2ccccc21 | -4%
COc1ccc(CCN2C(=O)CC(NCc3ccc4c(c3)OCO4)C2=O)cc1OC (centres undefined) | 29%
C=C(C)COc1ccc2c3c(c(=O)oc2c1OCC(=C)C)CCC3 | -4%
CCOC(=O)c1ccc(CSc2nncn2N)o1 | -3%
COc1ccc(-n2c(Cc3cccn3C)nnc2SCC(=O)Nc2ccc(C)cc2)cc1 | 78%
COc1ccc(C(=O)N2CCC[C@@]3(CCN(Cc4ccccc4)C3)C2)cc1 | 42%
COc1ccc(C(=O)NC(C)c2nc3ccccc3n2C)cc1OC (centres undefined) | 14%
CN(C)CCN1C(=O)C(=O)/C(=C(/O)c2ccc(OCc3ccccc3)cc2)C1c1ccncc1 (centres undefined) | -8%
Cc1cc(Nc2cc(C(=O)O)ccc2C)n2ncnc2n1 | 7%
Cc1cnnc2c1-c1no[n+]([O-])c1CC2 | -5%
CCNc1nc(SCc2ccccc2)nc(N2CCOCC2)n1 | 54%

(continued)
smiles | AmpC inh no det
COc1ccc(NS(=O)(=O)c2c(C)n(C)c(=O)n(C)c2=O)cc1OC | 1%
CCn1nc(NC(=O)c2ccco2)c2cc3ccc(C)cc3nc21 | 52%
Nn1cnn(Cc2ccccc2)c1=S | -6%
CS(=O)(=O)N1CCN(c2ccc(NC(=O)c3ccc(Br)o3)cc2)CC1 | -15%
COC(=O)c1cc(OC)c(OC)cc1NC(=O)Nc1ccccc1OC | 55%
Cc1cc(C)c2nc(N3CCCC3)c(C#N)cc2c1 | 28%
O=C(Oc1cccc2cccnc12)c1ccc2c(c1)OCCO2 | 19%
O=C1CC(c2cccc(Cl)c2)Cc2nc(N3CCOCC3)ncc21 (centres undefined) | 100%
CC(=O)OCc1ccc2c(c1)OCO2 | -4%
C=CCn1cc(C(=O)NCCCOC)c(=O)c2cc(S(=O)(=O)N3CCC(C)CC3)ccc21 | 150%
O=C(CN1CCN(Cc2ccc(F)cc2)C1=O)NCc1cccs1 | 13%
CCOc1cc2[nH]c(=S)n(CCCOC)c(=O)c2cc1OCC | 20%
C=C(Cl)Cl | -6%
O[C@@H]([C@H](O)[C@@H](O)CBr)[C@@H](O)CBr | 1%
COc1ccc(C(=O)Nn2cnc3scc(-c4cccs4)c3c2=O)c(O)c1 | -17%
COc1ccc(C(=O)N2CCN(C(=O)c3cc(OC)c(OC)c(OC)c3)CC2)cc1 | 17%
O=C(c1cccc(F)c1)N1CCC[C@@]2(CCN(c3ccccn3)C2)C1 | 27%
COc1ccc(Cl)cc1N(CC(=O)N1CCC(C)CC1)S(C)(=O)=O | 36%
Clc1ccc(C(c2ccccc2Cl)C(Cl)(Cl)Cl)cc1 (centres undefined) | -22%
Cc1ccc(NC(=O)c2ccccc2C(=O)O)cc1C | -1%[5.75 µM]

2 compounds drawn at random from those above:
smiles | AmpC inh no det
CCn1nc(NC(=O)c2ccco2)c2cc3ccc(C)cc3nc21 | 52%
O=C(c1cccc(F)c1)N1CCC[C@@]2(CCN(c3ccccn3)C2)C1 | 27%

More compounds:
smiles | AmpC inh no det
CC1(C)OC(=O)C(=CNC(Cc2c[nH]c3ccccc23)C(=O)O)C(=O)O1 (centres undefined) | -2%
Cc1c(C(=O)NCc2ccccc2)oc2c1C(=O)CCC2 | 7%
O=C(O)c1cc(S(=O)(=O)Nc2ccccc2C(=O)O)ccc1O | -9%
COc1ccc(-c2nc3ccccc3c(=O)n2CCN2CCOCC2)cc1 | 23%
Cc1ccccc1-c1nc(CN2CCC(C(=O)NCc3cccnc3)CC2)c(C)o1 | 40%
COc1cc(NS(=O)(=O)c2ccc(NC(=O)NC3CCCCC3)cc2)nc(OC)n1 | -9%
Cc1ccc(Nc2nnns2)cc1C | -7%
CCCCC(=O)Nc1ncc(Br)s1 | 6%
O=C(Nc1ccc2c(c1)OCO2)Nc1cnccn1 | 10%
[O-]/[N+](=C/c1ccc(F)cc1)c1ccccc1 | -5%
c1ccc(CNc2ncncc2-c2cccnc2)cc1 | -9%
CCOC(=O)C1CCN(c2ncnc3nc[nH]c23)CC1 | 19%
Cc1ccc2c(c1)N(CCC(=O)N1CCC3(CC1)OCCO3)C(=O)CO2 | 7%
Cc1ccc2oc(C(=O)Nc3c(C)n(C)n(-c4ccccc4)c3=O)c(C)c2c1 | 2%
C[C@@H](C(=O)Cc1ccc2ccccc2c1)[C@@H]1C[C@@]1(C)[C@@H](NP(=O)(c1ccccc1)c1ccccc1)c1ccccc1 | 44%
O=C(O)CNC(=O)c1ccccc1F | -7%
C=C(C)CSc1nnc(-c2ccc(OC)c(OC)c2)n1N | -5%
COc1ccc(S(=O)(=O)N(C)c2ccc(C(=O)NCC3CCCO3)cc2)cc1 (centres undefined) | 22%
Cc1[nH]nc2c1C(c1ccc(F)cc1)C(C#N)=C(N)O2 (centres undefined) | -17%
Nc1c(C(O)(C(F)(F)F)C(F)(F)F)ccc2ccccc12 | -10%
CSC1=NCCN1C(=O)c1ccc(S(=O)(=O)N2CCOCC2)cc1 | 1%
Clc1ccccc1Cn1nnc(-c2cccs2)n1 | -8%
COc1cc(C2C(C(C)=O)=C(O)C(=O)N2CCc2ccc(OC)c(OC)c2)ccc1O (centres undefined) | -8%
O=C(O)COc1ccc(Br)cc1/C=N/O | -9%
CCOc1ccc(NC(=O)CCS(=O)(=O)c2cccc3nsnc23)cc1 | 4%
O=C(Cc1cccs1)Nc1ccc(C(=O)O)cc1 | -7%
O=C(NC1(C(F)(F)F)NC(=O)N(C2CCCCC2)C1=O)c1cccs1 (centres undefined) | -2%
COc1ccc(N2CCCCn3c2nc2c3c(=O)[nH]c(=O)n2C)cc1 | 17%
C#CC1(O)CC(C)NCC1(C)CCC#N (centres undefined) | 0%
Cn1c(SCc2cccnc2)nc2cccnc21 | -11%

High-throughput results deposited in PubChem by National Center for Advancing Translational Sciences (NCATS).
